From PubChem
HIV Env fusion: blocks HIV Env-driven cell-cell fusion | AID 651610 | inhibition, % at 12.3 µM | HeLa-JRFL Env/CEM21 cell fusion, luciferase | actives 1.1% (n = 360,000);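 active = mean replicate inhibition score of at least 50 and every replicate individually at or above 50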;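 note: 0% = plate neutral controls and 100% = maraviroc near 300 nM; one replicate is shown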
Yeast UUG start: alters start codon recognition fidelity in yeast; S. cerevisiae UUG-firefly luciferase reporter, luminescence/redox ratio; activity score, % at 18.7 µM; actives 0.13% (n = 350,000); AID 602363;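 active = replicate mean at a twofold rise or more, about +100% in these data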;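 note: firefly luciferase made from a UUG start codon reports start codon fidelity; reporter light over untreated wells divided by growth signal over untreated wells; some hits fall short of that in this replicate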
MT1-MMP act inh: MT1-MMP (human) activation inhibition; actives 0.061% (n = 360,000); P50281; HT1080 RFP-PRO-GFP cells, GFP/RFP ratio fluorescence, overnight; percent of plate control window, DMSO zero; GFP/RFP ratio change, % at 20 µM;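 active = GFP/RFP ratio change of at least 30% with cell ATP level not reduced by more than half and red fluorescence within 50% of control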; note: strong numbers were not always called active
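Assay system: RFP-PRO-GFP reporter HT1080 cells; read-out basis: GFP/RFP fluorescence ratio; benchmarks: DMSO wells and RFP-L50D-GFP cells; doses: 20 µM single dose, 1% DMSO; schedule: overnight cell settling, then overnight compound exposure, 37 °C, 5% CO2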
Rce1 inh: yeast Ras-converting enzyme inhibition. Q03530. yeast membranes, quenched prenylated peptide cleavage fluorescence. calls only. actives 0.27% (n = 290,000);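 active = fall in fluorescence gain of 50% or more versus controls, with final raw signal at or below 3038400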;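 note: plate controls were neutral control wells for no effect and wells lacking membranes for full effect; tested at 10 µM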
Target sequence (Q03530 whole entry, looked up): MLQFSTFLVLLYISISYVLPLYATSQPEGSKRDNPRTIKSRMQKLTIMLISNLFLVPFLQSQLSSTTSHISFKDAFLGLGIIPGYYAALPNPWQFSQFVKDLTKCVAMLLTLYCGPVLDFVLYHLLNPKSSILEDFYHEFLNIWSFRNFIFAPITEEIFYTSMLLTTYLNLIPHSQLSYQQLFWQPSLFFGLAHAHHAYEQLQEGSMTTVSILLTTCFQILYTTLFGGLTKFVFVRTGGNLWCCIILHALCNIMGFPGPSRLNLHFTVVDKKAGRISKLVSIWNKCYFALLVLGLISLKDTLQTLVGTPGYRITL
PABP FP inh: PABP-poly(A) binding inhibition; PABP-poly(A) RNA binding, fluorescence polarization; inhibition, % at 35 µM; actives 1% (n = 290,000); AID 2014;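 active = 50% or more with normal probe brightness, or confirmed in later tests; about a fifth of its hits are not listed in these tables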;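 note: calls also rest on retests at 20 µM and on dose response follow-up; controls were probe without protein and protein plus probe with vehicle; some compounds called inactive have numbers as strong as hits; many hits fall short of the cut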
Target sequence (P11940 whole entry, looked up): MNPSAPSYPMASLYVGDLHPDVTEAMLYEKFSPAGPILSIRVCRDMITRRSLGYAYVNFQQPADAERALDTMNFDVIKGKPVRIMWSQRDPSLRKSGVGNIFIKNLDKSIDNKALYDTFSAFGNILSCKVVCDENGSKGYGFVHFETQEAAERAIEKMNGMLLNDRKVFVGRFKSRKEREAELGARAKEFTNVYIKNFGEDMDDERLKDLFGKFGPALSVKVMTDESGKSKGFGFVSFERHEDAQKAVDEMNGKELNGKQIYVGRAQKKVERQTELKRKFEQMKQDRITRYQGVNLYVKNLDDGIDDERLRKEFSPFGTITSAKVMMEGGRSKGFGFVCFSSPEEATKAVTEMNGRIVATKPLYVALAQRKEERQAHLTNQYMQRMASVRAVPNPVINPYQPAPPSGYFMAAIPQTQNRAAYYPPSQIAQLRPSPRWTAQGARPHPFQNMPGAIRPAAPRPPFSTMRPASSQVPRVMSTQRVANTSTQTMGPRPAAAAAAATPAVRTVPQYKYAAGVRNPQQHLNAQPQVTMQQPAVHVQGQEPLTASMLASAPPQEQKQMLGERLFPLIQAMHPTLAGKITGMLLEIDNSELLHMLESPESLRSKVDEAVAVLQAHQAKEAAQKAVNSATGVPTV
eIF4H inh: inhibitors of RNA binding by human eIF4H. Q15056. eIF4H fluorescence polarization binding assay. inhibition, % at 35 µM. actives 0.94% (n = 290,000). AID 2012;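 active = 50% or more with normal probe brightness, or confirmed in later tests; about a fifth of its hits are not listed in these tables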;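 note: calls also rest on retests at 20 µM and on dose response follow-up; 0% = protein and probe with vehicle and 100% = probe without protein; strong numbers were not always called active; many hits fall short of the cut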
CSC inhib: blocks cancer stem cells; cancer stem cell-like cells viability, luminescence; actives 1.1% (n = 300,000); AID 2717; inhibition, % at 7.5 µM;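 active = mean at 75% or more and at least half the replicates too; tested in HMLE shEcad cells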;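 note: 0% = median of negative and 100% = median of positive control wells; the first replicate is given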
MT1-MMP act inh RFP: also measured in MT1-MMP act inh; calls as there; RFP signal change, %; measured here: RFP expression control read;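 0 = vehicle wells; hits needed this value within 50% of zero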
* = called active by the depositor; i = inactive; · = not tested or not shown; & = joins results of further samples; [ ] = another dose, or the depositor's remark. Rows are unselected; 3% or so of the library scored in one or more.

The first three compounds, to show the layout:
SMILES | HIV Env fusion | Yeast UUG start | MT1-MMP act inh | MT1-MMP act inh RFP | Rce1 inh | PABP FP inh | eIF4H inh | CSC inhib
NC(=O)c1ccc(=O)n(C2OC(CO)C(O)C2O)c1 (stereo unspecified) | -129.5 | -5.2 | -3.1 | 1.8 | · | · | · | ·
COc1ccc(C2C(Oc3ccccc3C)C(=O)N2Cc2ccc(F)cc2)cc1OC (stereo unspecified) | · | 3.9 | -3.7 | -7.5 | i | -14.3 | 5.6 | 3.2
Cc1c(C(=O)OCC(=O)NCc2ccc3c(c2)OCO3)cccc1[N+](=O)[O-] | · | · | 3.1 | 3.6 | i | 5.8 | 6.7 | -1.6

All compounds of this part (from the top)
SMILES | HIV Env fusion | Yeast UUG start | MT1-MMP act inh | MT1-MMP act inh RFP | Rce1 inh | PABP FP inh | eIF4H inh | CSC inhib
NC(=O)c1ccc(=O)n(C2OC(CO)C(O)C2O)c1 (stereo unspecified) | -129.5 | -5.2 | -3.1 | 1.8 | · | · | · | ·
COc1ccc(C2C(Oc3ccccc3C)C(=O)N2Cc2ccc(F)cc2)cc1OC (stereo unspecified) | · | 3.9 | -3.7 | -7.5 | i | -14.3 | 5.6 | 3.2
Cc1c(C(=O)OCC(=O)NCc2ccc3c(c2)OCO3)cccc1[N+](=O)[O-] | · | · | 3.1 | 3.6 | i | 5.8 | 6.7 | -1.6
CCCC(CC)Sc1nc2c([nH]1)c(=S)n(C)c(=O)n2C (stereo unspecified) | 15.1 | -19.3 | 7.5 | -7.2 | · | · | · | ·
CC(C)CCNC(=O)CC1Nc2c3ccccc3nc(=S)n2C1=O (stereo unspecified) | -36.8 | · | 0.6 | 2.4 | i | -2.6 | -1.6 | 1.6
C[C@@H]1CN([C@H](C)CO)C(=O)c2cc(Br)cnc2O[C@H]1CN(C)C(=O)Nc1ccc2c(c1)OCO2 | -6.3[16.7 µM] | -24.4&18.7 | 3.6 | 7.5 | · | · | · | ·
O=C(NCc1ccc2c(c1)OCO2)C1CCCN(S(=O)(=O)c2cccnc2)C1 (stereo unspecified) | -4.2 | -11.2 | -0.5 | 1.3 | i | 7.7 | -3.8 | -16.1
C/C(N)=C(/C#N)C(=O)CSc1ccc2c(c1)OCCO2 | · | -37.2 | 1.1 | 5.0 | i | -0.7 | -10.8 | 10.5
O=S1(=O)[C@H]2C[C@@H]3C=C[C@@]2(CN1Cc1ccc(Cl)cc1)O3 | -3.0 | -12.7 | 1.0 | 4.6 | i | -6.3 | 4.7 | 1.9
Cc1ccc(NC(=O)COC(=O)Cc2ccsc2)c(C)c1 | 7.6 | · | -1.5 | 5.7 | i | 6.5 | -4.6 | -0.9
Fc1ccc(NC(=S)N2CCCCC2)cc1 | · | -16.9 | 2.7 | 3.3 | i | 3.4 | -4.9 | -11.6
O=C(CSc1ccc(Br)cc1)N1CCN(C(=O)c2ccco2)CC1 | -0.5 | -17.1 | -1.1 | -1.2 | i | 17.6 | -0.9 | -5.5
Cc1ccc(C(=O)N/C(=C\c2cccs2)C(=O)N2CCCCCC2)cc1 | · | -11.5 | -5.2 | 0.1 | i | 1.7 | -4.6 | -6.8
CCN1C[C@@H]2[C@@H]3C(=O)N(C)C(=O)[C@@H]3[C@](C)(C1=O)N2C(=O)c1ccc(F)cc1 | 4.3 | -1.7 | -3.3 | 1.1 | · | · | · | ·
CCOc1ccc(NC(=O)CN(C)C(=O)c2ccc3nc(CC)c(CC)nc3c2)cc1OCC | 2.7 | -5.8 | 1.1 | -0.5 | i | · | · | -4.6
CCOC(=O)c1cnc2c(ccc3ccccc32)c1NCCCN(C)C | -178.5 | -15.7 | -10.7 | -4.5 | i | 24.3 | -10.8 | 7.6
CCSCc1nnc(SCC(=O)Nc2cccc(C(C)=O)c2)n1C | -0.3 | -17.3 | 0.5 | 5.2 | i | 4.7 | -0.2 | -8.2
CSc1cccc(NC(=O)c2cnccn2)c1 | · | -14.8 | 1.4 | 3.1 | i | -6.2 | 3.5 | -3.1
CCCC(=O)N(c1ccc2oc(=O)sc2c1)S(=O)(=O)c1ccccc1 | · | -46.7 | -1.6 | -4.7 | i | 0.0 | 0.2 | 7.3
CC(OC(=O)CCc1c[nH]c2ccccc12)C(=O)c1ccccc1 (stereo unspecified) | 13.6 | · | -0.4 | -0.6 | i | -6.2 | -10.6 | -5.0
CCn1c(=N)n(CCO)c2ccccc21 | · | -19.6 | 1.5 | 4.9 | i | -6.7 | -5.8 | -12.4
O=C(CN1CCN(S(=O)(=O)c2ccc(Br)cc2)CC1)N/N=C/c1ccc(Br)s1 | 22.5 | · | -5.9 | -6.3 | i | -6.9 | 1.5 | -0.5
Cc1ccc(SCc2nn(C)c(Cl)c2C=O)cc1 | 2.1 | -14.6 | 0.7 | 1.1 | i | -8.4 | 5.6 | -6.9
O=C(N/N=C/c1ccccc1C(=O)O)C(=O)N1CCCCC1 | 2.9 | 1.2 | -4.4 | -2.9 | i | -6.4 | 0.4 | -10.7
NC(=O)c1ccsc1NC(=O)COC(=O)CSc1ccc(Cl)cc1 | 3.5 | 6.8 | 2.4 | 2.2 | i | -0.4 | 11.7 | 13.8
Cc1ccc(Cc2c(C3CCCCC3)nc3ccc(Cl)cn23)cc1 | 28.2 | -9.3 | -4.1 | -3.5 | · | · | · | ·
O=S(=O)(Nc1ccc(Cl)c(Cl)c1)N1CCOCC1 | 15.5 | -4.0 | -0.9 | 2.6 | i | -13.9 | -1.9 | -1.1
O=C(CSc1nc(-c2ccccc2Cl)ns1)Nc1ccc2c(c1)OCO2 | 24.4 | -17.9 | 0.6 | -4.4 | i | -11.9 | -14.9 | 57.7
CCOc1ccccc1Nc1ncccc1C(=O)O | -3.8 | -19.5 | 2.7 | 4.8 | i | 6.7 | -13.0 | -16.9
COc1ccc(CN(CC(=O)NCc2ccc(F)cc2)C(=O)c2ccco2)cc1 | 3.6 | -16.9 | 2.8 | 1.1 | i | 8.2 | 3.4 | -6.8
CC(O)c1ccc2c(c1)OCCOCCN(C)CCOCCO2 (stereo unspecified) | · | -4.8 | -0.3 | 0.9 | i | 2.1 | -3.9 | 3.2
Cc1ccc(NS(=O)(=O)c2cc3c(cc2C)NC(=O)CO3)cc1 | -16.4 | -9.8 | -0.2 | 0.1 | i | -7.2 | 6.3 | 11.2
Cc1cccc(C)c1NC(=S)N(Cc1ccccc1)Cc1cccs1 | 16.8 | -13.7 | -5.4 | -3.0 | i | 8.5 | 2.3 | 6.9
O=C(CSc1cccc[n+]1[O-])Nc1ccccc1Oc1ccccc1 | 7.4 | -33.9 | -8.8 | -5.6 | i | -13.2 | -7.6 | -1.5
CCC1CC(C(=O)O)CC(=O)N1 (stereo unspecified) | -3.4 | -18.2 | -2.3 | 1.0 | · | · | · | ·
NC(=O)c1cc(-c2ccccc2)nc2ccc(Br)cc12 | -22.1 | -20.4 | 1.4 | 3.0 | i | 4.8 | 1.9 | 7.4
CCOC(=O)n1n[n+]([O-])c2ccccc21 | -15.2 | · | 1.6 | 5.1 | i | -2.5 | -9.9 | 0.3
O=C(COC(=O)Cn1cnc2ccccc2c1=O)NCc1ccccc1Cl | 0.4 | · | 1.4 | 0.6 | i | 4.4 | -0.1 | 2.1
O=C(NC(=S)N(CCCCO)C1CCCCC1)c1sc2ccccc2c1Cl | · | -21.5 | -5.5 | -0.4 | i | 10.6 | 8.6 | 19.1
CC1CC(C)CN(C(=O)Cn2c(=O)c3cccn3c3cccnc32)C1 (stereo unspecified) | 4.4 | 1.6 | -2.2 | 2.6 | i | 31.4 | 26.4 | -3.2

Another view of part of the listing above:
Compound: O=C(CSc1cccc[n+]1[O-])Nc1ccccc1Oc1ccccc1
- HIV Env fusion: 7.4
- Yeast UUG start: -33.9
- MT1-MMP act inh: -8.8
- MT1-MMP act inh RFP: -5.6
- Rce1 inh: i
- PABP FP inh: -13.2
- eIF4H inh: -7.6
- CSC inhib: -1.5

Compound: CCC1CC(C(=O)O)CC(=O)N1 (stereo unspecified)
- HIV Env fusion: -3.4
- Yeast UUG start: -18.2
- MT1-MMP act inh: -2.3
- MT1-MMP act inh RFP: 1.0
- Rce1 inh: ·
- PABP FP inh: ·
- eIF4H inh: ·
- CSC inhib: ·

Compound: NC(=O)c1cc(-c2ccccc2)nc2ccc(Br)cc12
- HIV Env fusion: -22.1
- Yeast UUG start: -20.4
- MT1-MMP act inh: 1.4
- MT1-MMP act inh RFP: 3.0
- Rce1 inh: i
- PABP FP inh: 4.8
- eIF4H inh: 1.9
- CSC inhib: 7.4

Following part:
SMILES | HIV Env fusion | Yeast UUG start | MT1-MMP act inh | MT1-MMP act inh RFP | Rce1 inh | PABP FP inh | eIF4H inh | CSC inhib
CC1CCN(S(=O)(=O)c2ccc3c(c2)N(CC(=O)NCc2cccnc2)C(=O)CS3)CC1 | 7.3 | · | 8.4 | 5.9 | · | 0.5 | 6.6 | -0.8
C#CCNC(=O)C1=C[C@H](c2cn(C(C)=O)c3ccccc23)[C@@H](CCCO)[C@H](OCC)O1 | -5.9 | 8.2 | 7.0 | 3.3 | i | 4.1 | -4.7 | -4.8
CC(Sc1ccc(S(=O)(=O)N2CCCCC2)cn1)C(N)=O (stereo unspecified) | -26.9 | -18.4 | 8.0 | 10.7 | · | · | · | ·
COc1ccc2nc3sc(C(=O)N4CCN(C)CC4)cc3cc2c1 | · | -1.4 | 2.3 | 5.3 | i | -1.7 | -2.8 | 21.3
O=C(O)C1=C2C(=O)Nc3cccc(c32)C2(C1)C(=O)Nc1ccccc12 (stereo unspecified) | 4.8 | 6.2 | 1.3 | 6.5 | · | · | · | ·
CCN(C[C@H]1N[C@@](CC)(C(=O)OC)[C@H]2C(=O)N(C)C(=O)[C@@H]12)S(=O)(=O)c1ccc(OC(F)(F)F)cc1 | 5.4 | -0.8 | -0.1 | 1.3 | · | · | · | ·
CCc1ccc(CN(C)C(=O)c2cc(COc3c(F)cccc3F)on2)cc1 | 1.5 | · | -2.6 | 0.6 | i | 6.5 | -5.4 | 0.2
CN(c1ccccc1)S(=O)(=O)c1ccc(C(=O)OCC(=O)N2CCOCC2)cc1 | -277.2 | -10.5 | 1.0 | 4.4 | i | -3.2 | 5.9 | -9.9
COc1ccc(NC(C)=O)cc1S(=O)(=O)Nc1ccc(OCc2ccccc2)cc1 | 15.8 | 16.6 | 3.2 | -18.9 | i | -7.0 | -3.1 | 11.7
Cc1cc(C)c(S(=O)(=O)c2ccccc2Cl)c(Cl)n1 | 10.0 | · | 4.9 | 0.2 | i | -12.1 | 1.3 | 16.4
Cc1sc2ncnc(OCC(=O)NC(C)C(C)C)c2c1C (stereo unspecified) | -8.6 | · | 1.8 | 2.9 | i | 4.9 | -0.8 | -12.1
O=C(NCc1ccc2c(c1)OCO2)c1ccc(CS(=O)(=O)c2ccc(Br)cc2)o1 | 5.7 | 12.6 | 2.3 | -9.9 | i | 4.1 | 1.3 | 3.9
Cc1cccc(C(=O)NNC(=O)c2ccc(NC(=O)C(C)(C)C)cc2)c1 | -6.1 | -2.3 | 0.0 | 2.0 | i | 2.5 | 0.1 | 43.0
COCCN1C[C@@H](CO)O[C@@H](n2cnc3c(NC4CCCC4)ncnc32)C1 | 4.5 | -14.4 | 0.1 | 7.4 | · | · | · | ·
O=C1N(Cc2ccc3c(c2)OCO3)c2ccccc2C1(O)c1c[nH]c2ccccc12 (stereo unspecified) | -90.1 | -11.7 | -0.1 | 0.4 | i | -0.1 | -4.6 | 4.9
O=C(CN(C(=O)c1csnn1)c1ccc(F)c(Cl)c1)NCc1ccc(F)cc1 | -11.7 | -6.3 | -0.5 | 1.5 | · | -2.7 | -4.5 | -11.6
COc1ccc(NC(=O)CSc2nnc(C3CCCCC3)n2N)c(OC)c1 | -2.8 | -10.5 | -1.8 | 0.1 | i | -7.8 | -12.0 | -1.0
CCOc1ccc(C(C)NC(=O)Nc2ccc(F)cc2F)cc1 (stereo unspecified) | -7.5 | 11.3 | 0.8 | -0.1 | i | 7.1 | 1.0 | -31.1
